Tg IFNy HTS: blocks Toxoplasma gondii growth in the presence of IFN-gamma; activity change, negative = inhibition, %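 (about 20 µM by stock and volumes)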; Toxoplasma gondii growth in IFN-gamma-treated host cells; active compounds read low; reference of the scale not given here; actives 3.8% (n = 69,000);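 active = below -70%; inconclusive = fit judged invalid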;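 also: host cells are HeLa cells infected with Toxoplasma gondii; parasite growth read as luciferase light; one replicate is shown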
An asterisk follows results filed as active; ? = inconclusive; & = joins results of further samples.

SMILES | Tg IFNy HTS
Cc1cnc(C(=O)N2CCC3(CC(=O)N(c4cnn(C)c4)C3)C2)cn1 (stereo not given) | 10
CCC1=NC2(CCC(C(=O)Nc3cccnc3)CC2)C(=O)N1CCOC (stereo not given) | -1
Cc1nc(-c2cn3c(n2)-c2ccc(-c4cnn(C(C)(C)C(N)=O)c4)cc2OCC3)n(C(C)C)n1 | -6
CC(C)C(=O)N1CCCC2(C1)CN(c1nncs1)CCO2 (stereo not given) | 6
Cc1nocc1C(=O)N1CCC2(CC1)C(=O)N(CC(C)C)CCN2C | 11
CCN(C(=O)c1cc2cccnc2n(Cc2ccccc2)c1=O)c1ccccc1C | -21
CCC(NC(=O)CN1C(=O)C2CCC(C)(C1=O)C2(C)C)c1ccc(OC)cc1 (stereo not given) | -6
Cc1cc2c(SCC(=O)c3ccc(F)cc3)ncnc2s1 | 147
Cc1ccc(-c2nc(CN(c3ccccc3)S(=O)(=O)c3ccccc3)c(C)o2)cc1 | 1
CCCC(=O)Nc1ccc2c(c1)OC[C@H](C)N(S(=O)(=O)c1cn(C)cn1)C[C@H](C)[C@@H](OC)CN(C)C2=O | 136
CC(C)c1cc(C2CCN(Cc3cccnc3N)CC2)[nH]n1 | -47
CN(C)C(=O)C[C@@H]1CC[C@H]2[C@@H](COc3ccc(NC(=O)C4CCCCC4)cc3C(=O)N2C)O1 | -3
c1nc(NN2CCCCC2)c2sccc2n1 | 36
CN(C)C(=O)CN1CCC2(CC1)CN(C(=O)C1CC1)Cc1ccccc12 | -1
COc1ccc(-c2n[nH]c(CC(C)C)n2)c(OC)c1OC | 1
CO[C@H]1CC[C@@H]2CCN(C)C(=O)CC3(CCCCC3)CN(C)C(=O)c3cc(C#N)ccc3OC[C@@H]1O2 | 22
Cc1ccc(-n2c(SCc3nc(-c4ccccc4C)oc3C)nc3c(=O)[nH]cnc32)cc1 | 109
COc1cccc(CNC(=O)c2nc(Nc3ccc(C)cc3)c3ccccc3n2)c1 | -101*
Cn1cccc(C(=O)N2CCC(N3CCCC(C(=O)NC4CC4)C3)CC2)c1=O (stereo not given) | -43
COc1ccc(NC(=O)CN2C(=O)CCc3cc(S(=O)(=O)N4CCOCC4)ccc32)cc1Cl | 8
O=C1CCC(=O)N[C@@H](c2ccc(F)cc2)C/C=C\C[C@H](c2ccc(F)cc2)N1 | -22
Cn1ccnc1-c1c(-c2ccccc2)ncn1CC(O)Cc1ccccc1 (stereo not given) | 0
COc1cccc(-c2ccc3c(c2)[C@@H]2[C@@H](CCN2S(=O)(=O)C2=NC(C)C=N2)[C@@H](CO)N3C)c1 (stereo not given in full) | -36
COc1cccc(CN(C)Cc2ncc[nH]2)c1O | 73
COc1ccc(N2CCCC2)cc1C(=O)O | -41
Cn1cnnc1C1CCN(C(=O)CC2COCCN2)CC1 (stereo not given) | -2
COCC(=O)N1[C@H](C#N)[C@H](c2ccccc2-c2ccccc2F)[C@@H]1CO | -8
CC(C)OC(=O)CCC/C=C\C[C@@H]1[C@@H](/C=C/[C@@H](O)COc2cccc(C(F)(F)F)c2)[C@H](O)C[C@@H]1O | 9
Cc1oc(-c2ccccc2)nc1Cn1ccn2nc(-c3ccc(F)cc3)cc2c1=O | 125
CC(O)Cc1cn(CC2CCN(C(=O)C3CCCCCC3)CC2)nn1 (stereo not given) | -1
COc1ccc(CN(C)C[C@H]2OCc3cnnn3CCCC(=O)N([C@@H](C)CO)C[C@H]2C)cc1 | ?
CC(C)CCNc1ccc(-c2ccc(Cl)cc2)nn1 | 170
CC(C)(C)NC(=O)C(c1ccccn1)N(C(=O)c1ccc2c(c1)OCCO2)C1CCCC1 (stereo not given) | -7
CN(C)c1nc(N)nc(COC(=O)CC(CC(N)=O)c2ccccc2)n1 (stereo not given) | 25
C=CCn1c2c(ccc1=O)CC(NC(=O)Cc1cccs1)CC2 (stereo not given) | 164
Cc1ccc(CN2CCC3(CC2)N=C(c2ccc(Br)cc2)C(=O)N3)c(C)c1 | 77
Cc1ccc(CN2CCC3(CC2)CC(NS(C)(=O)=O)CCO3)s1 (stereo not given) | 0
COc1ccc(OC)c(NS(=O)(=O)c2ccc3[nH]c(=O)ccc3c2)c1 | 38
CS(=O)(=O)N1C[C@@H](O)COC[C@H]2O[C@@H](CC(=O)NCc3ccccc3)CC[C@@H]21 | -30
Cc1ccnc(NCCNC(=O)c2nn(C)c(=O)c3ccccc23)c1 | -20
COCC(=O)Nc1ccc2c(c1)OC[C@@H](C)N(C)C[C@H](C)[C@@H](OC)CN(C)C2=O | 9
Clc1ccc2ncnc(-c3ccccc3)c2c1 | 31
CN(C)Cc1cn2c(n1)CN(C1CCOC1)CC2 (stereo not given) | 14
CCS(=O)(=O)N1CCC2(CC1)CC(COCC1CC1)N(C(C)C)C2 (stereo not given) | -3
CCOc1ccc(C2=CC(c3ccc(C)cc3)c3ccccc3O2)cc1 (stereo not given) | 30
Cc1nn(-c2cc(N3CCCC3)ncn2)c(C)c1CCC(=O)NC1CCCC1 | -16
COc1ccc(CCNC(=O)CN2CCN(c3cn[nH]c(=O)c3)CC2)cc1 | 6
COC(=O)[C@H](c1ccccc1Cl)N1CCc2sccc2C1 | 13&16
Nc1nnc(SCc2nc3ccccc3[nH]2)s1 | -16
O[C@]12CCCC[C@H]1CN(Cc1ccc(-n3cncn3)cc1)CC2 | 3
CO[C@H]1CN(C)C(=O)c2cc(NC(C)=O)ccc2OC[C@@H](C)N(C(=O)Cc2ccccn2)C[C@@H]1C | 83
CCn1cc(CNc2nc(-c3ccc(Cl)cc3)nc3c2CNC3)cn1 | -6
CCC(C(=O)Nc1ccc2c(c1)n(C)c(=O)n2C)n1cnc2ccccc21 (stereo not given) | 3
C[C@H]1CN([C@@H](C)CO)C(=O)Cc2cc(NC(=O)C3CCCCC3)ccc2O[C@H]1CN(C)Cc1ccc(Cl)c(Cl)c1 | -54
CCOC(=O)C1CSC(Cc2ccc(OCc3ccc([N+](=O)[O-])cc3)cc2)N1 (stereo not given) | 63&54
N#Cc1c(F)cccc1Sc1ccc(Cl)cc1 | 52
COc1cccc(-c2nc(C)c(-c3ccc(SCc4ccc(F)cc4)nn3)s2)c1 | -39
C[C@H](CO)N1C[C@H](C)[C@H](CN(C)C(=O)c2cc(-c3ccccc3)on2)OCc2cnnn2CCCC1=O | -76*
CCOCC(=O)N1CC[C@@H]2[C@H]1CCN2c1nncs1 | 28
CO/N=C(\C(=O)N[C@@H]1C(=O)N2C(C(=O)O)=C(CSC(=O)c3ccco3)CS[C@H]12)c1csc(N)n1 | -49&20

Pulled one by one from above:
SMILES | Tg IFNy HTS
CC(C)c1cc(C2CCN(Cc3cccnc3N)CC2)[nH]n1 | -47
Cc1ccc(CN2CCC3(CC2)N=C(c2ccc(Br)cc2)C(=O)N3)c(C)c1 | 77
CN(C)Cc1cn2c(n1)CN(C1CCOC1)CC2 (stereo not given) | 14
COc1ccc(N2CCCC2)cc1C(=O)O | -41

The list goes on.
SMILES | Tg IFNy HTS
CCn1cc(CN2CCN(C)C3(CCN(C(=O)c4ccco4)CC3)C2)cn1 | -11
CCCc1cc(C(=O)N2CCC3(CC2)CNC(=O)C3)cs1 | -8
C[C@@H]1CNC(=O)[C@H](Cc2ccc(C(F)(F)F)cc2)CCn2nncc2COC1 | -5
CO[C@H]1CN(C)C(=O)c2cc(NC(=O)Nc3cc(F)ccc3F)ccc2OC[C@@H](C)NC[C@@H]1C | -30
CCCCc1oc2ccc(NS(C)(=O)=O)cc2c1C(=O)c1ccc(OCCCN(CCCC)CCCC)cc1 | -68
CC1CCCCN1C1CN(c2nc(CCN)nc3ccccc23)C1 (stereo not given) | 5
Cc1cc(=O)n(CC(=O)N2C[C@H]3C[C@H](O)[C@H](O)C[C@H]3C2)c2ccccc12 | 0
C[C@@H]1CN([C@H](C)CO)C(=O)CCCn2nncc2CO[C@@H]1CN(C)S(=O)(=O)c1ccccc1C#N | 202
COC(=O)[C@@H]1C[C@@H](N(C)C)CN1S(=O)(=O)c1ccc(NC(C)=O)cc1 | 71
COCCN1CCCC(O)(CN2CCC(Oc3ncccn3)CC2)C1=O (stereo not given) | -2
COc1ccc(-c2nc3c(s2)CN(C(=O)Nc2cc(C)ccc2OC)CC3)cc1 | -41
O=C(COc1cccc2ccccc12)NCCNC(=O)c1nc(C2CCCCC2)no1 | 10
COc1ccc(S(=O)(=O)N2CCC3(CC2)Nc2cc(F)ccc2-n2cccc23)cc1OC | 21
COc1cccc2c1OCC(C(=O)NCCSc1nnnn1C)C2 (stereo not given) | 2
CCN1CCN(c2ncnc3sc(C(=O)NCCc4c[nH]c5ccc(Cl)cc45)c(C)c23)CC1 | -83*
CCCNC(=O)N1CC2(C1)CN(C(=O)CN1CCOCC1)[C@@H](CO)c1[nH]c3cc(OC)ccc3c12 | -19
CC(C)CN1CC2CN(C(=O)Nc3ccccc3)CC2C1 (stereo not given) | -12
CCOC(=O)c1c(-c2ccccc2)oc2cc(CN(C)C)c(O)c(CN(C)C)c12 | 10
CN(C)c1cc(N2CCCC(CO)(CCOc3ccccc3)C2)ncn1 (stereo not given) | 0
O=C(O)C[C@H]1C=C[C@@H](NC(=O)Nc2cc(F)ccc2F)[C@H](CO)O1 | 0
O=C(c1ccccn1)N1CC[C@H]2CNS(=O)(=O)[C@@H]2CC1 | 5
Cc1ccc(NC(=O)Cn2c(=O)cc(-c3nc(C4CC4)no3)c3ccccc32)cc1F | 33
CCn1cncc1C(=O)N1CCC(c2ccc(C(=O)Nc3ccc(F)cc3)cn2)CC1 | -11
CC(C)Nc1nc2c(c(NC3CC3)n1)CCN(C(=O)C1CCOC1)CC2 (stereo not given) | 0
CC(=O)N[C@H]1C[C@@H](c2cccc(Cn3cccn3)c2)O[C@@H](C(C)C)C1 | -2
Cc1onc(-c2ccncc2)c1C(=O)O | 18
COC(=O)c1ccc(S(=O)(=O)Oc2ccccc2N2CCOCC2)o1 | 0
COc1cccc(NC(=O)N2CC3(C2)[C@H](c2ccccc2)[C@H](CO)N3C(C)=O)c1 | 32
CCOC(=O)C(NC(C)=O)C(O)c1ccc([N+](=O)[O-])cc1 (stereo not given) | 9
C[N+](C)(C)CCOP(=O)(O)OC[C@H](O)CO | 6
CCn1c(C)cc(C)c(C(=O)NCc2cccnc2N2CCN(C)CC2)c1=O | 4
O=C(NN1CC(=O)N(CCc2ccccc2)C1=O)c1cc2c(s1)CCCC2 | 39
CCc1c(C(=O)O)[nH]c2ccc(C)cc12 | -7
COc1ccc(C)cc1-n1cnnc1CN | 7
COc1ccc(NC(=O)c2nc3c(n2C)CCN(Cc2ccccc2)C3)cc1 | -52
O=C(N[C@@H]1CC[C@H](CC(=O)N2CCOCC2)O[C@@H]1CO)c1cccc(F)c1 | 47
CCOC(=O)c1[nH]ncc1-c1c(-c2ccccc2)ncn1C1CC=CC1 | -39
COCC(C)(C)C(=O)NCC1CCCN(C2CCCC2)C1 (stereo not given) | 15
CCOc1ccc(-c2nc(CN(c3ccccc3OCC)S(=O)(=O)c3ccccc3)c(C)o2)cc1 | 1
CCNc1ccnc(N2CCC(N(CC)CC)C2)n1 (stereo not given) | 7
CNC(=O)c1cnc(-c2ccccc2)nc1CCNC(=O)Cc1c[nH]c2ccccc12 | 3
C[C@H](CO)N1C[C@H](C)[C@H](CN(C)C(=O)NC2CCCCC2)OCc2ccccc2-c2c(n(C)c3ccccc23)C1=O | -32
COc1ccc2c(c1)CCCN2CC(=O)NCc1nc2ccccc2n1C | 9
COCCc1nnc(NC(=O)C2(Cc3cc(-c4ccc(C)cc4)no3)CCOCC2)s1 | -51
CC(=O)N1CCc2ncn(C)c2C1C(=O)NCCc1ccccc1 (stereo not given) | -47
CN(C)C(=O)c1cccc(-c2ccc3c(c2)[C@H]2[C@H](CCN2Cc2nccs2)[C@H](CO)N3)c1 | 13
CCOc1ccc(N(Cc2nc(-c3cccc(C)c3)oc2C)S(=O)(=O)c2ccccc2)cc1 | -49
CC(C)(C)c1cc(CN2CC[C@@]3(O)CCCC[C@H]3C2)[nH]n1 | 0
CCC(=O)N1CC(=O)N2[C@@H](CO)[C@@H](c3ccc(C#CCC(C)C)cc3)[C@@H]2C1 | -23
Cc1oc(-c2cccc(Cl)c2)nc1CSc1nc2c(c(=O)[nH]1)CN(Cc1ccc(F)cc1)CC2 | -43
CC1CCC(C)N1c1cc(C(F)(F)F)cc(C(F)(F)F)c1 (stereo not given) | 19
Cc1ccc(C(=O)N2CCC3(CC2)COC(COc2ccccn2)C3)o1 (stereo not given) | 8
Cc1ccccc1-c1noc(-c2c(O)c3ccccc3n(C)c2=O)n1 | 0
C=CCN(Cc1ccc(F)cc1)C(=O)c1c(C)nn(CC)c1C | 10
COc1ccc(CN(Cc2cccc(F)c2)C(=O)C2CCOC2)cc1 (stereo not given) | 8
C=CCn1c(CN2CCN(c3ncnc4nc[nH]c34)CC2)nc2ccccc21 | -19

Molecules shown so far that contain a Cl atom, in the order listed:
SMILES | Tg IFNy HTS
COc1ccc(NC(=O)CN2C(=O)CCc3cc(S(=O)(=O)N4CCOCC4)ccc32)cc1Cl | 8
CC(C)CCNc1ccc(-c2ccc(Cl)cc2)nn1 | 170
Clc1ccc2ncnc(-c3ccccc3)c2c1 | 31
COC(=O)[C@H](c1ccccc1Cl)N1CCc2sccc2C1 | 13&16
CCn1cc(CNc2nc(-c3ccc(Cl)cc3)nc3c2CNC3)cn1 | -6
C[C@H]1CN([C@@H](C)CO)C(=O)Cc2cc(NC(=O)C3CCCCC3)ccc2O[C@H]1CN(C)Cc1ccc(Cl)c(Cl)c1 | -54
N#Cc1c(F)cccc1Sc1ccc(Cl)cc1 | 52
CCN1CCN(c2ncnc3sc(C(=O)NCCc4c[nH]c5ccc(Cl)cc45)c(C)c23)CC1 | -83*
Cc1oc(-c2cccc(Cl)c2)nc1CSc1nc2c(c(=O)[nH]1)CN(Cc1ccc(F)cc1)CC2 | -43

Some of the compounds tested; count on the stated rates, not on these rows.
